Screens deposited in PubChem by National Center for Advancing Translational Sciences (NCATS).
TRPML1 inh: inhibitors of human TRPML1 channel | 390,000 tested, 0.02% active | activity change, negative = inhibition, % (test concentration not listed) | TRPML1-inducible cells, Ca2+ dye fluorescence, FDSS; hits give low values; inhibition of EC80 agonist-evoked calcium signal | Q9GZU1; in the data active means activity change below about -50%; inconclusive means about -30% to -50%; inactive means above about -30%;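 further: stimulus is agonist 54-4 at its EC80 concentration; on the % scale 0 is the no-effect control and ±100 the full control effect; compound concentration not given in the record; the text of the record puts the active cut at -80%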
Target sequence (Q9GZU1 whole entry, looked up): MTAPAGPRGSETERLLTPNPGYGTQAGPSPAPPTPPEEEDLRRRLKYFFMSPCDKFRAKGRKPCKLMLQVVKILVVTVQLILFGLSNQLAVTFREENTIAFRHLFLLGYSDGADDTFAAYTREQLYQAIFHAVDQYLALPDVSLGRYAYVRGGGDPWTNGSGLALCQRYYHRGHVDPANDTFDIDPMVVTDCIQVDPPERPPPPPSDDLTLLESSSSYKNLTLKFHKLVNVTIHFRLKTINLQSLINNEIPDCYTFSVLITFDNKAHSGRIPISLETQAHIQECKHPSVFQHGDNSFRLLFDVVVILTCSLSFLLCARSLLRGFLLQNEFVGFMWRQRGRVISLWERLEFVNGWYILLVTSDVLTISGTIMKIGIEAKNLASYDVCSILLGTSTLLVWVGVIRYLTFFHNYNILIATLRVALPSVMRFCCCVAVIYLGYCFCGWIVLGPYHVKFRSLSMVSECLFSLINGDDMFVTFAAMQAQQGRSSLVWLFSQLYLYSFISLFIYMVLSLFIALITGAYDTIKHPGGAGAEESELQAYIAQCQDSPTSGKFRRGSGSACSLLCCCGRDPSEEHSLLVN
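Tet-induced TRPML1-DL cells loaded with Ca8 no-wash calcium dye were read kinetically on FDSS. Compound addition was followed by EC80 agonist 54-4 (4 uM final); inhibition was read over 110 s.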
ClpP mod: qHTS Assay for Activators of ClpP; purified B. subtilis ClpP, FRET peptide cleavage, 20 min; 340,000 tested, 1.9% active; AID 651965, 2013; Potency, µM (series often up to 57.5 µM), for the others: top-dose activity change, negative = active; active = well fitted falling curve with a large enough effect; inconclusive = small, poorly fitted or top-dose-only effect; inactive = no such curve, though single readings can be large or run the other way; further: potency means the concentration at half of the fitted maximal effect; the source files actives as falling curves though it sought activators and does not explain the sign; nearly all actives have a fitted effect of over 65% in size; many hits overshoot -100%
Target sequence (P80244 whole entry, looked up): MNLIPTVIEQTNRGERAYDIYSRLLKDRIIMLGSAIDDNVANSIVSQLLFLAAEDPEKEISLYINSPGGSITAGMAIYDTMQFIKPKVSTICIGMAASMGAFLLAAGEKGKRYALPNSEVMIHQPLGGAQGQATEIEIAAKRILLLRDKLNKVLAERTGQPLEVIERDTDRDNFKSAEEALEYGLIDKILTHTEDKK
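Buffer: 100 mM Tris/HCl pH8, 100 mM KCl, 0.05% low protease BSA, 2.5% glycerol, 0.01% Tween-20. ClpP 10 microg/mL final; 20 min RT; delta FRET normalized to ADEP and DMSO controls.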
An asterisk follows results filed as active; u = inconclusive. Some of the compounds tested; rates above refer to the full screens.

SMILES | TRPML1 inh | ClpP mod
CCn1c(=O)c2sccc2n2c(CCCC(=O)N3CCN(c4ccccc4OC)CC3)nnc12 | 22 | -8.6%
CC(C)c1ccc(NC(=O)CN2C(=O)COc3ccc(S(=O)(=O)Nc4ccccc4)cc32)cc1 | -4 | -2.3%
CC1CCc2c(sc(NC(=O)COc3ccccc3)c2C(=O)Nc2ccccc2Cl)C1 (stereo not drawn) | 8 | 1.9%
COc1ccc(-c2cc(C(C)=O)c(C)n2CCC(=O)Nc2cc(C)ccc2OC)cc1 | -18 | -1.8%
CCCCOC(=O)c1ccc(Nc2ncnc3c2cnn3-c2cccc(C)c2)cc1 | -9 | -9.8%
CCCC1=Nc2cc(C(=O)NCCc3ccc(OC)cc3OC)ccc2Sc2ccccc21 | 44 | -6.4%
COC(=O)c1c(NC(=O)Cc2coc3ccc(C(C)C)cc23)sc2c1CCC2 | 12 | -17%
CCCN1C(=O)C2(c3ccccc31)c1c(oc3cc(C)c(C)cc3c1=O)C(=O)N2CCCOC (stereo not drawn) | 11 | -3.1%
COc1cccc(C(=O)NCCSc2c(-c3ccc(F)cc3)[nH]c3ccccc23)c1OC | 26 | 4.3%
O=C(CSc1ncc2c(n1)-c1ccccc1N(Cc1ccc(F)cc1)S2(=O)=O)c1ccc(Cl)cc1 | 27 | -4.3%
Cc1ccc2ncc(C(=O)NCCc3ccc(S(N)(=O)=O)cc3)c(=O)n2c1 | 64 | 4.0%
CC(C)CN1CCc2nc(N3CCN(c4ncccn4)CC3)ncc2C1 | -6 | -3.8%
COc1ccc(CCC(=O)NCc2nc3cccnc3n2Cc2cccc(OC)c2)cc1 | -18 | -4.0%
Cc1ccc(NC(=O)Cn2c(=O)n(Cc3ccco3)c(=O)c3sc4ccccc4c32)cc1C | -13 | -8.2%
CCc1ccccc1NC(=O)Cn1ccn(Cc2ccccc2)c(=O)c1=O | -13 | 4.7%
COc1ccccc1NC(=O)CSc1nnc(N)s1 | -5 | 0.3%
CCc1ccc2occ(CC(=O)Nc3c(C(=O)c4ccc(F)cc4)oc4ccccc34)c2c1 | -9 | u
CC1CCCN(C(=O)Cn2ncc3c([nH]c4ccccc43)c2=O)C1 (stereo not drawn) | 11 | 5.8%
Cc1ccc(NC(=O)Nc2cn(CC(C)C)c(=O)c3ccccc23)cc1N(C)C | -10 | u
Cc1cc(C)cc(OC(=O)c2snnc2C)c1 | 4 | -2.8%
Cc1cc(Nc2cccc(F)c2)n2nc(-c3ccco3)nc2n1 | -5 | 1.5%
O=C1CCCc2cc(S(=O)(=O)NCC3CCC(C(=O)Nc4ccc(Cl)cc4)CC3)ccc2N1 (stereo not drawn) | 3 | -11%
Cc1ccc(CNC(=O)c2ccc(CSCc3ccccc3C)o2)cc1 | 15 | -1.1%
N#C/C(=C\c1cccn1S(=O)(=O)c1cccc([N+](=O)[O-])c1)S(=O)(=O)c1ccc(F)cc1 | 29 | 2.3%
CCC(=O)N1c2ccccc2CC1C(=O)NCc1cc(Br)ccc1OC (stereo not drawn) | -13 | 1.9%
Next part
SMILES | TRPML1 inh | ClpP mod
Fc1ccc(C(NCCc2ccccc2)c2nnc(-c3ccccc3Cl)o2)cc1 (stereo not drawn) | 38 | -1.0%
O=C(CC1N=C2c3ccccc3N=C(SCC(=O)Nc3ccc(F)cc3)N2C1=O)NCc1ccc2c(c1)OCO2 (stereo not drawn) | -15 | -0.8%
CCC(C)NC(=O)c1c2c(nc3ccccc13)C(=O)N(C1CCCCC1)C2 (stereo not drawn) | 20 | -14%
O=C(CCC1N=C2c3ccccc3N=C(SCC(=O)Nc3cccc(Cl)c3)N2C1=O)NCc1ccco1 (stereo not drawn) | 4 | -18%
CC(C)S(=O)(=O)c1oc(-c2ccc(F)cc2)nc1S(=O)(=O)c1ccccc1 | 17 | -12%
Cc1cccc(C)c1NC(=O)c1sc(-n2nc(C)c(Cc3ccccc3)c2C)nc1C | 14 | -5.7%
Nc1ccn([C@@H]2O[C@H](C(=O)NCC(F)(F)F)[C@@H](O)[C@H]2O)c(=O)n1 | 11 | 1.5%
Cc1ccc(-n2nnc(-c3nsc(NC(=O)c4ccc(C)c(C)c4)n3)c2C)cc1 | -21 | -17%
O=C(NCCc1ccc(Cl)cc1)C(=O)NCC(c1cccs1)S(=O)(=O)c1cccs1 (stereo not drawn) | 10 | -2.7%
Cc1ccc(Cl)cc1NC(=O)c1cnn2c(C(F)F)cc(-c3ccccc3)nc12 | -18 | 1.7%
COc1ccccc1CNC(=O)CCCn1c(=O)c2ccccc2n(Cc2ccc(C)cc2)c1=O | -11 | -2.8%
CCOC(=O)c1noc2ncn(CC(=O)Nc3ccc(C)c(F)c3)c(=O)c12 | 12 | -2.3%
COc1ccc(-c2c3c(nc4sc(C(=O)Nc5ccc(Cl)cc5)c(N)c24)CC(C)(C)CC3=O)cc1 | -16 | -2.3%
Cc1nc2ccccc2n1CC(O)COc1ccc(C(=O)O)cc1 (stereo not drawn) | 11 | -1.8%
CCc1cccc(NC(=O)C(Cc2ccccc2)NS(=O)(=O)c2ccc3c(c2)c(=O)n(C)c(=O)n3C)c1 (stereo not drawn) | -13 | 0.0%
Cc1cc2nn(-c3ccc(F)cc3)nc2cc1NC(=O)c1cccc([N+](=O)[O-])c1C | -7 | -2.9%
Cc1ccc(Cl)cc1NC(=O)COC(=O)CC(C)(C)CC1=NS(=O)(=O)c2ccccc2N1 | -10 | 2.0%
COCCn1c(C)cc(O)c(C(c2ccc(Cl)cc2)N2CCCCC2)c1=O (stereo not drawn) | -17 | -1.4%
CCOC(=O)C1=CC[C@@H](c2ccccc2)N(S(=O)(=O)c2ccc(C)cc2)[C@H]1C | 76 | -0.8%
CCOc1ccc(S(=O)(=O)N2CCN(c3ccccc3)CC2)cc1C(N)=O | 12 | 1.9%
Cc1ccc(NC(=O)C(=O)c2cc(C)n(-c3ccc(F)cc3)c2C)cc1C | -10 | -2.4%
O=C(NCCc1ccccc1)c1cnc2sc(N3CCOCC3)nn2c1=O | 3 | 10µM*
O=C(COc1ccccc1-c1nc(-c2ccccc2)no1)Nc1ccc([N+](=O)[O-])cc1 | 4 | 1.0%
CCC(=O)OC1=CN(Cc2ccccc2)S(=O)(=O)c2ccccc21 | 25 | -1.5%
Cc1cc(C)cc(NC(=O)N2CCN(C(=O)c3nsc4ccccc34)CC2)c1 | -3 | 0.7%

One compound at a time (already shown). Order of values: TRPML1 inh | ClpP mod
Results for COc1ccccc1CNC(=O)CCCn1c(=O)c2ccccc2n(Cc2ccc(C)cc2)c1=O → -11 | -2.8%
Results for COc1ccc(-c2c3c(nc4sc(C(=O)Nc5ccc(Cl)cc5)c(N)c24)CC(C)(C)CC3=O)cc1 → -16 | -2.3%
Results for CCC(C)NC(=O)c1c2c(nc3ccccc13)C(=O)N(C1CCCCC1)C2 (stereo not drawn) → 20 | -14%
Results for CCc1cccc(NC(=O)C(Cc2ccccc2)NS(=O)(=O)c2ccc3c(c2)c(=O)n(C)c(=O)n3C)c1 (stereo not drawn) → -13 | 0.0%

Next compounds:
SMILES | TRPML1 inh | ClpP mod
COC(=O)c1cc2sccc2n1Cc1ccc(F)cc1 | -22 | 0.8%
Cc1cccc(OC(=O)c2cc(-c3ccc4c(c3)OCCO4)on2)c1 | 34 | 25µM*
CCCSCCCNC(=O)c1ccc2c(c1)nc1n2CCCCC1 | -16 | 0.4%
O=C(Nc1c(C(=O)N2CCN(c3ccccc3F)CC2)oc2ccccc12)c1cccc(F)c1 | 3 | 85%
CC(C)(C)OC(=O)N1CCC(c2c(C(=O)NCCN3CCC(Cc4ccccc4)CC3)cnn2-c2ccccc2)CC1 | 2 | 2.0%
CCOC(=O)c1ccc(N2C(=O)c3n[nH]c(-c4ccco4)c3C2c2ccc(F)cc2)cc1 (stereo not drawn) | 6 | -5.9%
O=C(Nc1ccc(Br)cc1F)c1cc(S(=O)(=O)NC2CCCCC2)ccc1F | 4 | 345%
CCOC(=O)Cn1nc(-c2ccccc2)c2cnc3ccc(OCC)cc3c21 | -8 | 4.0%
CCCN(CCC)C(=O)Cn1c(=O)n(-c2cccc(C(F)(F)F)c2)c(=O)c2c(C)c(C)sc21 | 13 | 0.9%
CCc1ccc(NC(=O)C2CCN(S(=O)(=O)c3c(C)noc3/C=C/c3cccs3)CC2)cc1 | 3 | -10%
COC(=O)c1ccc2nc(-c3ccc(F)cc3)c(Cc3ccc(OC)cc3C)n2c1 | -13 | u
O=C(NCCn1cc(SCc2ccccc2)c2ccccc21)c1cccs1 | 10 | -5.7%
Cc1ccc(-n2ncc3c(N4CCN(Cc5ccccc5)CC4)ncnc32)cc1 | 10 | -0.9%
CCOC(=O)CSc1nc2c(sc3ccccc32)c(=O)n1CCc1ccccc1 | 15 | 0.1%
COc1cc(OC)cc(C(=O)Nc2cc(-c3nc4cccnc4s3)ccc2C)c1 | 14 | 1.8%
O=C(CSc1ccnc(=O)[nH]1)NCc1ccc(F)cc1 | -9 | -2.5%
COc1ccc(C(=O)NC2CC(=O)N(c3ccc4c(c3)OCCO4)C2)cc1 (stereo not drawn) | 27 | 0.1%
O=C1CC(c2nc3ccccc3[nH]2)CN1c1cccc(Cl)c1 (stereo not drawn) | -2 | 1.2%
O=C(/C=C/c1cn(CC(O)CN2CCc3ccccc32)c2ccccc12)c1ccc(Br)cc1 (stereo not drawn) | 11 | -0.7%
COc1ccc(-c2nnc(SCC(=O)c3ccc(NC(C)=O)cc3)o2)cc1OC | 11 | -8.6%
C[C@@H]1CN([C@H](C)CO)C(=O)CCCn2cc(nn2)CO[C@H]1CN(C)S(=O)(=O)c1cccs1 | -20 | 0.1%
O=C(Nc1nnc(S(=O)(=O)N2CCCc3ccccc32)s1)c1ccccc1 | 15 | -2.5%
CCc1nn2c(=O)c(S(=O)(=O)Nc3ccc(C)c(C)c3)c(C)nc2s1 | 11 | -2.5%
O=C(CN1CCSc2ccccc21)N1CCN(c2cccc(Cl)c2)CC1 | -1 | -0.3%
Cc1ccc(NC(=O)Cn2c(=O)c(CNc3ccccc3)cc3cc4c(cc32)OCCO4)cc1 | 11 | 4.7%

The last 4 records of the section above come first, to join the parts:
SMILES | TRPML1 inh | ClpP mod
O=C(Nc1nnc(S(=O)(=O)N2CCCc3ccccc32)s1)c1ccccc1 | 15 | -2.5%
CCc1nn2c(=O)c(S(=O)(=O)Nc3ccc(C)c(C)c3)c(C)nc2s1 | 11 | -2.5%
O=C(CN1CCSc2ccccc21)N1CCN(c2cccc(Cl)c2)CC1 | -1 | -0.3%
Cc1ccc(NC(=O)Cn2c(=O)c(CNc3ccccc3)cc3cc4c(cc32)OCCO4)cc1 | 11 | 4.7%
COc1ccc(-n2nnnc2C2CCN(S(=O)(=O)c3cccc(C(F)(F)F)c3)CC2)cc1 | -11 | -1.0%
Cc1cc(C)c(NC(=O)CN2C(=O)CCSc3ccc(S(=O)(=O)N4CCCC4)cc32)c(C)c1 | 20 | -7.9%
O=C(Cn1cc(S(=O)(=O)Cc2ccccc2Cl)c2ccccc21)NCCc1ccccc1 | 0 | -0.7%
Cc1ccc(-n2cc(-c3ccccc3)c3c(N4CCCCC4)ncnc32)cc1 | 17 | u
CCOC(=O)C1(C)CCN1C(=O)Cc1ccc(OC)cc1 (stereo not drawn) | -5 | -0.5%
COc1ccc(OC)c(NC(=O)Cn2cnc3c(oc4ccccc43)c2=O)c1 | -7 | -3.4%
Cc1cccc(N2CCN(C(=O)c3ccc4c(Cl)c5c(nc4c3)CCCC5)CC2C)c1 (stereo not drawn) | -13 | -0.1%
O=C(CCCCCn1c(=O)[nH]c2ccccc2c1=O)NCCc1ccccc1 | 15 | 32µM*
O=C(NCc1ccccc1Cl)c1ccc2c(c1)NC(=O)C(CS(=O)(=O)Cc1ccc(Cl)cc1)N2 (stereo not drawn) | 7 | 4.3%
COC(=O)c1cc2oc3ccccc3c2n1Cc1c(C)cc(C)cc1C | 2 | u
CCN(CC)C(=O)c1sc2c(c1C)c(=O)n(CCc1ccccc1)c(=O)n2Cc1cccc(Cl)c1 | 76 | -0.3%
Cc1ccc(OCC(=O)Nc2nnc(SCc3cc(=O)c4ccccc4[nH]3)s2)cc1C | 9 | -0.3%
Cc1nc(-n2nc(C)c(Cc3ccc(Cl)cc3)c2C)sc1C(=O)N1CCC(C)CC1 | 12 | -2.1%
Cc1ccc(NC(=O)Cn2c(=O)n(CCCC(=O)NCc3ccc4c(c3)OCO4)c(=O)c3ccccc32)cc1 | 12 | -0.8%
CC(=O)c1cc2c(cc1NC(=O)c1c(C)nn(-c3ccc(C)cc3)c1-n1cccc1)OCO2 | -13 | -4.3%
OC[C@@H]1CN(Cc2cccc(C(F)(F)F)c2)C[C@H](n2cnc3c(NCc4ccc(F)cc4)ncnc32)O1 | 88 | 1.2%
Cc1cccc(CN2[C@H](CO)C=CS2(=O)=O)c1 | -2 | 0.9%
COc1ccc(NC(=O)C(=O)NCCc2ccccc2)cc1OC | 15 | 1.4%
CCOc1ccc2nc(N3CCC(C(=O)Nc4c(C)cccc4C)CC3)sc2c1 | 7 | 1.4%
CCc1c(C)sc2c1CCN(C(=O)Nc1cc(C)ccc1C)C2c1ccc(OC)cc1 (stereo not drawn) | 19 | -1.1%
Cc1ccc(N2C(=O)CSC23C(=O)N(CC(=O)NCCc2ccccc2)c2ccccc23)cc1C (stereo not drawn) | 41 | -0.7%
COC(=O)c1sccc1S(=O)(=O)N1CCN(c2ccccc2OC)CC1 | -9 | 0.6%
